UCH37 inh = inhibitors of human UCH37 deubiquitinase, primary screen, biochemical, Ub-AMC cleavage, fluorescence. Ubiquitin carboxyl-terminal hydrolase isozyme L5 (Homo sapiens), Q9Y5K5. purified proteasome/UCH37. inhibition, % (no concentration beside the values). 330,000 tested, 0.33% active. AID 588478, 2011;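 active = mean of two replicates above 20%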;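 also: 0% = compound-free wells with enzyme and 100% = wells lacking proteasome; stock transfer was 100 nL into about 20 µL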
Target sequence (Q9Y5K5 whole entry, looked up): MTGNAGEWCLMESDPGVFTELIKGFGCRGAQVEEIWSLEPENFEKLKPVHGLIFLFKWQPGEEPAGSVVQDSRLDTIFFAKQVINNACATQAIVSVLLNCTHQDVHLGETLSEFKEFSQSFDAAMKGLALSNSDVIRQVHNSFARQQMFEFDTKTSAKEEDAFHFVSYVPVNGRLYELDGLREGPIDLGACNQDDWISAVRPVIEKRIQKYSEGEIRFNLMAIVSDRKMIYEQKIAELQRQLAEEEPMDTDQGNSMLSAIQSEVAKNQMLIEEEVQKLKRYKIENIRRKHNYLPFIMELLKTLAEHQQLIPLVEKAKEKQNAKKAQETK
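Material: Human UCH37 enzyme supplied as purified proteasome complex | Schedule: 30 min compound-proteasome preincubation then 25 min substrate reaction, room temperature | Detection: AMC fluorescence from Ub-AMC cleavage, excitation 355 nm, emission 460 nm | Benchmarks: Wells without proteasome as full block, compound-free enzyme plus substrate as uninhibited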
E coli growth = E. coli growth inhibition, primary screen, OD600; 330,000 tested, 0.21% active; OD600 absorbance (concentration not given with the values); AID 1053175, 2014; Escherichia coli growth, 23 h; stronger effect = lower value;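 active = OD600 absorbance below the run mean of sample wells minus 3.6 SD, in any replicate, cut at about 0.56 in these data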;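 also: stock transfer was 300 nL into about 60 µL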
Active calls of the source: *; & = joins results of further samples. Not all compounds are listed; the hit share may differ from the screen's.

item | compound | UCH37 inh | E coli growth
1 | COc1ccc(C=NNC(=S)Nc2ccccc2)cc1COc1ccccc1F | 2.1 | 0.73
2 | CSc1nc(C)cc(OCC(=O)NN=Cc2ccccc2O)n1 | -19 | 0.72
3 | Cc1[nH]c2ccccc2c1C=NNC(=O)CNc1ccc2c(c1)OCO2 | 1.0 | 0.68
4 | CC(=NNC(=O)Cc1ccc(Cl)cc1)c1cccnc1 | -0.1 | 0.7
5 | COc1ccc(C=NNC(=O)c2nc(-c3ccccc3)cc(-c3ccccc3)n2)cc1O | -3.4 | 0.71
6 | CC(=NN=Cc1ccccc1)c1nnn(-c2nonc2N)c1C | 2.9 | 0.74
7 | CC(C)(C)c1ccc(C(=O)NN=Cc2cccc(Cl)c2)cc1 | 7.9 | 0.7
8 | COc1ccc(C=NOC(=O)Nc2ccc(Cl)cc2)c(OC)c1 | 1.4 | 0.59
9 | COc1ccc(C=NNC(=O)c2ccc(N(C)S(=O)(=O)c3ccccc3)cc2)c(OC)c1 | -6.1 | 0.72
10 | O=C(NN=Cc1c(Cl)cccc1Cl)c1ccc(-n2cnnn2)cc1 | -2.0 | 0.74
11 | C/C=C/C=[N+](\[O-])C(C)C(=NO)c1ccc(F)cc1 (stereo not drawn) | 0.9 | 0.69
12 | O=C(NN=Cc1ccoc1)c1ccc([N+](=O)[O-])cc1 | 4.7 | 0.69
13 | CSc1ccc(C=NN2CCN(c3ccccc3)CC2)cc1 | 5.1 | 0.7
14 | COc1ccc2nc(C)cc(NN=Cc3cccc(OC)c3O)c2c1 | 6.5 | 0.59
15 | CC(=NN=Cc1ccccc1O)c1ccccc1O | 3.9 | 0.66
16 | Cc1ccc(-n2c(C)cc(C=NNC(=O)CC3(C)OCCO3)c2C)c(C)c1 | -0.8 | 0.73
17 | CC(=NNC(=O)CNC(=O)c1ccc(Br)cc1)c1ccco1 | -0.2 | 0.69
18 | Cc1onc(-c2ccccc2)c1C(=O)NN=Cc1cn(C)c2ccccc12 | 2.2 | 0.65
19 | COc1ccccc1C=NNC(=O)c1c(-c2ccccc2)noc1C | 3.9 | 0.68
20 | CCCc1nc(SCC(=O)Nc2cc(Cl)ccc2OC)c2c(=O)n(C)c(=O)n(C)c2n1 | 3.7 | 0.75
21 | COc1cccc(-c2c(C(=O)NN=C(C)COc3ccccc3)nnn2-c2nonc2N)c1 | 0.3 | 0.6
22 | O=C(CSc1nnc(SCc2ccccc2)s1)NN=Cc1c[nH]c2ccccc12 | 1.9 | 0.7
23 | Cc1ccc(NC(=S)NN=C2CC(C)(C)Oc3ccc(O)cc32)cc1 | -5.7 | 0.67
24 | Oc1ccc(C=NNc2cc(N3CCOCC3)nc(N3CCOCC3)n2)cc1O | 3.9 | 0.7
25 | O=C(O)c1ccccc1C=NNc1ccc(S(=O)(=O)N2CCOCC2)cc1[N+](=O)[O-] | 15 | 0.68
26 | CCn1c2ccccc2c2cc(C=Nn3c(C)nnc3C)ccc21 | -234 | 0.66
27 | CN1C[C@@H](c2ccc(Cl)c(Cl)c2)[C@@]2(COc3ccccc3C2=O)[C@@]12C(=O)Nc1ccccc12 | 1.9 | 0.71
28 | COc1ccc2c(Cl)c(C(=O)NN=Cc3ccncc3)sc2c1 | -29 | 0.68
29 | COc1ccc(C)cc1N(CC(=O)NN=Cc1ccc2c(c1)OCO2)S(C)(=O)=O | 2.0 | 0.6
30 | COc1ccc(C=NNc2cc(C)nc(N)n2)cc1 | 5.3 | 0.63
31 | C(=NN1CCN(Cc2cccc3ccccc23)CC1)c1cccnc1 | 3.5 | 0.64
32 | CCOc1cc(C=NNC(=O)c2ccncc2)ccc1OC(=O)c1ccccc1 | -0.2 | 0.68
33 | CC(=NNC(=O)c1ccc(Br)cc1)C1C(=O)c2ccccc2C1=O | 11 | 0.68
34 | Fc1ccc(C=NNC(=S)Nc2cccnc2)cc1F | -1.0 | 0.67
35 | N#CCOc1ccccc1C=Nn1nnnc1N | 5.4 | 0.65
36 | COc1ccc(NC(=S)NN=Cc2cccn2Cc2ccc(F)cc2Cl)cc1 | -1.0 | 0.72
37 | ON=Cc1ccn(-c2ccc(Br)cc2)c1 | 1.0 | 0.65
38 | COc1ccc(C(=O)NN=Cc2cc3ccccc3[nH]c2=S)cc1 | 3.1 | 0.67
39 | CCOC(=O)NN=C(C)c1cccc(-n2cnnn2)c1 | 3.2 | 0.68
40 | COC(=O)NN=Cc1ccccc1 | 1.1 | 0.69
41 | C/C(C=NNc1nncc(=O)[nH]1)=C\c1ccccc1 | 7.3 | 0.65
42 | Cc1sc(NN=Cc2ccco2)nc1-c1ccccc1 | 0.9 | 0.72
43 | Cc1[nH]c2ccccc2c1C=NNS(=O)(=O)c1ccccc1 | 0.7 | 0.66
44 | O=[N+]([O-])c1ccccc1C=NN1CCN(c2ccncc2S(=O)(=O)N2CCCCC2)CC1 | 6.3 | 0.68
45 | CCCCCC(=O)NN=Cc1ccco1 | -3.2 | 0.7
46 | CC(=O)c1sc(NN=Cc2cccc([N+](=O)[O-])c2)nc1C | 6.0 | 0.71
47 | Cc1cccc(C(=O)Nc2cccc(C(=O)NN=Cc3ccncc3)c2)c1 | 6.1 | 0.67
48 | Cc1[nH]c(=O)[nH]c(=O)c1C=NNC(=O)CCc1ccc(OC(C)C)cc1 | 3.6 | 0.68
49 | COc1cc(C=NNS(=O)(=O)c2ccccc2)ccc1OS(=O)(=O)c1ccc(C)cc1 | 6.0 | 0.73
50 | Cc1ccc(-c2[nH]ncc2C=Nn2c(COc3ccccc3)nc3ccccc3c2=O)cc1 | 4.6 | 0.71
51 | CCCc1c(C(=O)NN=Cc2cccc(OCc3ccc(F)cc3)c2)nnn1-c1nonc1N | 5.7 | 0.71
52 | CCOC(=O)c1c(C)c(C=NNc2ccccc2)n(C)c1C | -38 | 0.71
53 | O=[N+]([O-])c1cc(S(=O)(=O)N2CCCC2)ccc1NN=Cc1cccs1 | 5.5 | 0.69
54 | O=C(NN=Cc1cc2c(cc1[N+](=O)[O-])OCO2)c1ccccn1 | 3.9 | 0.67
55 | O=C(NN=Cc1cccnc1)c1cc(-c2ccc(Cl)cc2)nc2ccccc12 | 1.4 | 0.65
56 | O=C(O)c1nc(Cl)c(Cl)c(NN=Cc2ccccc2C(F)(F)F)c1Cl | 13 | 0.67
57 | Cc1cc(C)nc(NN=Cc2ccco2)n1 | 7.0 | 0.71
58 | COc1cccc(-c2c(C(=O)NN=Cc3ccc(C)o3)nnn2-c2nonc2N)c1 | -22 | 0.67
59 | O=C1/C(=C\c2ccc(O)cc2)SC(=S)N1N=Cc1ccc(O)cc1 | 5.4 | 0.67
60 | Cc1ccc(Oc2ncccc2C=NOCc2ccc(Cl)cc2Cl)cc1 | 2.1 | 0.76

Single records, from the list above. Values in the order: UCH37 inh | E coli growth
Entry for CCOC(=O)c1c(C)c(C=NNc2ccccc2)n(C)c1C = -38 | 0.71
Entry for COc1cc(C=NNS(=O)(=O)c2ccccc2)ccc1OS(=O)(=O)c1ccc(C)cc1 = 6.0 | 0.73
Entry for Cc1cc(C)nc(NN=Cc2ccco2)n1 = 7.0 | 0.71
Entry for O=C(O)c1nc(Cl)c(Cl)c(NN=Cc2ccccc2C(F)(F)F)c1Cl = 13 | 0.67
Entry for CCCc1c(C(=O)NN=Cc2cccc(OCc3ccc(F)cc3)c2)nnn1-c1nonc1N = 5.7 | 0.71

Going on with the list.
item | compound | UCH37 inh | E coli growth
61 | Fc1cccc(C=NNc2cc(N3CCOCC3)ncn2)c1 | 4.9 | 0.66
62 | O=C(CNc1cccc2ccccc12)NN=Cc1ccc[nH]1 | -1.2 | 0.64
63 | CCOC(=O)C(=NNc1ccccc1)S(=O)(=O)c1ccccc1 | 7.4 | 0.69
64 | COc1ccc2nc(N=C(N)NC(=O)Nc3ccccc3)nc(C)c2c1 | -3.9 | 0.68
65 | COc1ccc(C=c2sc(=CC(=O)c3ccc(C)cc3)[nH]c2=O)cc1OC | 1.3 | 0.67
66 | CC(=NNC(=O)CNC(=O)c1ccncc1)c1ccco1 | 1.8 | 0.68
67 | Cc1c(C(=O)O)cccc1-c1ccc(C=Nn2cnnc2)o1 | -12 | 0.69
68 | CC(=O)Nc1ccc(C=NN2CCCCC2)cc1 | 5.3 | 0.69
69 | COc1ccc(C=NNc2cc(C)nc(-n3nc(C)cc3C)n2)c(OC)c1 | 1.4 | 0.68
70 | CCOC(=O)C(C#N)=c1sc(=C2C=Cc3ccccc3N2CC)c(=O)n1CC | 1.8 | 0.74
71 | C/C(C=NN1CCN(c2ccccc2)CC1)=C\c1ccco1 | 2.1 | 0.62
72 | COc1cc(C=Nn2cnnc2)ccc1Oc1nc(Cl)ncc1F | 4.0 | 0.72
73 | Cc1cc(NN=Cc2ccc(F)cc2)nc(NCc2ccccc2)n1 | 1.5 | 0.61
74 | CON=CC(=NNc1ccc(OC)cc1)C(=O)c1ccc(OC)cc1 | 2.9 | 0.79
75 | CCn1cc(C=NNC(=O)c2cc3c(ccc4ccccc43)o2)c2ccccc21 | -22 | 0.79
76 | CON=Cc1ccc(Oc2ccc(C)cc2)nc1 | 1.5 | 0.76
77 | CC(Cn1nnc2ccccc21)=NOC(=O)c1c(F)cccc1F | 2.7 | 0.68
78 | NC(=S)NN=Cc1ccc(C=NNC(N)=S)cc1 | -4.9 | 0.7
79 | Nc1nonc1-n1nnc(C(=O)NN=C/C=C/c2ccccc2)c1CSC1=NCCS1 | 3.0 | 0.61
80 | Cc1ccc(C=NNC(=O)c2nn(C)cc2Cl)cc1 | -0.2 | 0.7
81 | COc1ccc(C=NN2C(=O)CN(C(=O)c3ccccc3)C2c2ccc(OC)cc2)cc1 (stereo not drawn) | 3.3 | 0.64
82 | CCCCN(CCCC)CCNC(=O)Cc1nc2c(c(=O)[nH]c(=O)n2C)n1C | -2.7 | 0.71
83 | CC(C)(C)NCC(=O)NN=Cc1ccc(OCc2ccccc2)cc1 | 4.9 | 0.7
84 | C/C(C=NNC(=O)Cn1cnc2c1c(=O)n(C)c(=O)n2C)=C\c1ccco1 | 10 | 0.7
85 | Cc1ccc2[nH]c3c(N4CCN(Cc5ccc6c(c5)OCO6)CC4)ncnc3c2c1 | -29 | 0.62
86 | COc1ccccc1NC(=O)CC(C)=NNC(=O)C12CC3CC(CC(C3)C1)C2 | -3.1 | 0.69
87 | COc1cc(C=Nn2cnnc2)ccc1OCC(=O)Nc1ccc(C)cc1 | -1.2 | 0.72
88 | COc1ccc(CC(=O)NN=C(C)CC(=O)Nc2cccc(F)c2)cc1 | 1.3 | 0.7
89 | CCOc1cc(C(=O)NN=C(C)Cc2ccc(OC)cc2)cc(OCC)c1OCC | 3.0 | 0.67
90 | COc1ccc2c(Cl)c(C(=O)NN=Cc3ccc4c(c3)OCO4)sc2c1 | -18 | 0.72
91 | CC1CC(=NNC(=O)c2cccnc2)CC(C)(C)C1 (stereo not drawn) | 0.0 | 0.73
92 | O=C(CO)NN=Cc1ccc(Cl)cc1 | 4.1 | 0.71
93 | CCC(CC)C(=O)Nc1cccc(C(C)=NNC(=O)c2ccccc2Cl)c1 | 2.4 | 0.7
94 | Cc1ccc(C=NNC(=O)CSCc2ccc(Cl)cc2)cc1 | -0.2 | 0.74
95 | CCCC(=O)Nc1ccc(C(=O)NN=Cc2ccc([N+](=O)[O-])o2)cc1 | 7.8 | 0.62
96 | Cc1ccsc1C=NNC(=O)CC(=O)NCC(C)C | 4.1 | 0.69
97 | COc1cc(C=NN2CCN(C3c4ccccc4-c4ccccc43)CC2)ccc1O | 5.3 | 0.76
98 | COc1cc(C=NNC(=O)CCN2CCN(c3ccccc3)CC2)cc(OC)c1OC | 7.8 | 0.69
99 | Cc1[nH]nc2c1C(=NO)CC(c1ccccc1)C2 (stereo not drawn) | 1.4 | 0.72
100 | S=c1[nH]nc(-c2ccccn2)n1N=Cc1ccc(Cl)c(Cl)c1 | 2.6 | 0.68
101 | N#CCC(=O)NN=Cc1cn(Cc2cccc3ccccc23)c2ccccc12 | 1.3 | 0.63
102 | O=C(CNC(=O)c1ccc(S(=O)(=O)N2CCCC2)cc1)NN=Cc1ccc(Cl)cc1Cl | 6.2 | 0.69
103 | COc1ccc(CC(C)=NNC(=S)Nc2ccc(C(C)C)cc2)cc1 | 3.4 | 0.7
104 | CCN(CC)c1ccc(C=NNC(=O)CNC(=O)/C=C/c2ccco2)cc1 | -61 | 0.65
105 | Brc1ccccc1C=NNc1nc2ccccc2o1 | -5.0 | 0.71
106 | COc1ccc(Nc2nc(NCc3ccco3)nc(NN=Cc3ccccc3)n2)cc1 | -1.9 | 0.74
107 | C=CCn1c(=C(C#N)C(=O)NCCN2CCOCC2)sc(=Cc2ccsc2)c1=O | 1.1 | 0.75
108 | O=C(NN=Cc1ccc(F)cc1)c1cccc(NC(=O)c2ccccc2Cl)c1 | 4.7 | 0.63
109 | CC(C)c1cc(C(=O)NN=Cc2ccco2)n[nH]1 | 2.4 | 0.7
110 | CC(=NNc1ccc([N+](=O)[O-])cc1)c1cc2ccccc2o1 | -1.3 | 0.74
111 | Cc1cc(C(=O)NN=C2CC(=O)CC(C)(C)C2)c(C)n1-c1ccc(F)cc1 | 6.2 | 0.72
112 | CC(O)=C(C#N)c1nc2ccccc2[nH]1 | 2.2 | 0.71&0.72
113 | O=C(Oc1ccc(C=NNC(=O)c2ccccn2)cc1)c1cccc(F)c1 | -17 | 0.7
114 | COc1ccccc1NS(=O)(=O)c1cccc(C(=O)NN=C(C)c2ccc(-n3ccnc3)cc2)c1 | 0.0 | 0.67
115 | CCOc1cc(C=NNC(N)=O)cc(Br)c1OCc1ccccc1F | 4.2 | 0.65
116 | O=C(ON=C1CCCc2ccccc21)C1CC1 | -1.0 | 0.71

Assay outcomes: PubChem BioAssay, ICCB-Longwood Screening Facility, Harvard Medical School
